# From PubChem BioAssay
# Sa ugtP lethal: growth inhibition of ugtP-null S. aureus, primary screen, RN4220 ugtP deletion, OD600 | 16 h; some inactives read as strong as hits | growth inhibition, % (test concentration not listed) | 0.54% of 330,000 active | AID 1259309, 2017;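 active = z-score under -3 and OD600 up to 0.15 on both plates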;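 note: plate controls were untreated wells for no effect and antibiotic for full effect; wells of about 80 µL received 100 nL stock; the first replicate is given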
# Mtb hypoxia inh: PubChem AID 1159583; M. tuberculosis hypoxia-regulated fluorescent reporter, fluorescence; fluorescence inhibition, % (no concentration beside the values); 0.1% of 300,000 active;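 active = 35 to 45% if threefold the growth effect, above 45% if 1.5-fold the growth effect; inactive = the rest, general growth blockers included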;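 note: wells of about 50 µL received 100 nL stock; 0% = vehicle wells and 100% = reference inhibitor wells; whole bacteria with a GFP reporter of the hypoxia response; strong numbers were not always called active; many hits fall short of the cut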
# Bead autofluor: counter-screen for toxin protease inhibitors: compound fluorescence | compound autofluorescence counterscreen, microsphere flow cytometry; hits give high values | fluorescence intensity (test concentration not listed) | AID 624483 | 3.1% of 360,000 active;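 active = at least 3 SD above the mean of all compounds, about 16000 in these data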;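 note: 100 nL of 1 mM stock went into each well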
# RN4220 kill: growth inhibition of S. aureus RN4220, primary screen, OD600; 16 h; inhibition, % (test concentration not listed); 0.33% of 330,000 active;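 active = z-score of -3 or lower and OD600 up to 0.18 on both plates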;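 note: plate controls were untreated cells for no effect and reference antibiotic for full effect; stock transfer was 100 nL into about 80 µL; one replicate is shown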
# PrP UTR inh: inhibition of PrP 5' UTR reporter expression; 0.35% of 340,000 active; inhibition, % (no concentration beside the values); cell-based PrP 5' UTR mRNA reporter, plate reader;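 active = every replicate at 50% or more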;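 note: 0 = median of the neutral control wells; tested in H4 reporter cells; numbers are from one replicate; inactives centre near -14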
# BJeLR lethal: MLPCN primary cell-based screen for lethality selective to Ras in HRASV12 cells | BJeLR (HRASV12) viability, CellTiter-Glo ATP luminescence, 48 h; reference of the scale not given here | inhibition, % (no concentration beside the values) | 0.17% of 300,000 active | AID 1554, 2009;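 active = replicate mean above 50%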;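 note: 50 nL library stock added to about 25 µL; numbers are from one replicate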
# Mtb hypoxia inh growth: also measured in Mtb hypoxia inh; calls as there; growth inhibition, %; measured here: M. tuberculosis growth (absorbance);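 0% = vehicle and 100% = reference antibiotic; read after six days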
# Active calls of the source: *; . = not tested or not shown. This is a random part of the collection; any-hit rate near 4%.
SMILES,Sa ugtP lethal,Mtb hypoxia inh,Mtb hypoxia inh growth,Bead autofluor,RN4220 kill,PrP UTR inh,BJeLR lethal
CCCC12CN3CN(C1)CC(CCC)(C3)C2O (stereo unspecified),-3,.,.,4779,-0.5,-22,-2
O=C(c1ccc(N2CCCCC2)c([N+](=O)[O-])c1)N1CCN(c2ccccn2)CC1,5,-2,-6,4472,4.0,.,3
CC(C)C(NS(=O)(=O)c1ccc(Br)s1)C(=O)O (stereo unspecified),-1,.,.,3568,5.2,-16,2
O=C(Nc1cccc(F)c1)c1cccnc1,4,3,8,3305,1.4,-6,-2
CCOc1ccc(N=C2NC(=O)C(CC(=O)Nc3ccc(OC)cc3)S2)cc1 (stereo unspecified),0,13,12,1942,2.2,4,-2
CC(=O)c1ccc(NC(=O)CN2C(=O)CCC2=O)cc1,7,12,3,4066,4.5,-31,6
C=CCNc1nc(S(=O)Cc2ccc(C)cc2)nc2c1CCCC2 (stereo unspecified),16,16,8,4295,-0.1,-13,2
COc1cc(/C=C2\N=C(C)OC2=O)cc(OC)c1OC,1,20,10,2955,3.8,-20,0
O=S(=O)(Nc1ccc(-n2cnnn2)cc1)c1ccc(Cl)s1,-10,14,10,3645,4.3,-26,.
CC(C)CC(=O)NC(=S)Nc1cccc(NC(=O)c2ccccc2Cl)c1,21,1,2,4125,-4.9,-18,4
Brc1ccc2c(c1)C(OC1CN3CCC1CC3)c1ccccc1CS2 (stereo unspecified),0,15,31,2657,-6.4,11,8
O=C(CSc1nc(O)c(Cc2ccccc2)c(=O)[nH]1)Nc1nnc(SCc2ccccc2)s1,.,.,.,4063,.,-31,11
Cc1ccc(S(=O)(=O)NN=Cc2ccc(C)o2)cc1,21,2,-3,.,-6.3,.,.
COc1ccccc1C=NNc1cc(C)nc(N2CCOCC2)n1,3,1,4,.,4.9,.,.
COc1cc(NC(=O)c2cccnc2SC)cc(OC)c1,2,3,0,4637,2.7,-18,-10

# Complete entries, looked up by structure. Values in the order: Sa ugtP lethal | Mtb hypoxia inh | Mtb hypoxia inh growth | Bead autofluor | RN4220 kill | PrP UTR inh | BJeLR lethal
# Results for `O=S(=O)(Nc1ccc(-n2cnnn2)cc1)c1ccc(Cl)s1` : -10 | 14 | 10 | 3645 | 4.3 | -26 | .
# Results for `O=C(Nc1cccc(F)c1)c1cccnc1` : 4 | 3 | 8 | 3305 | 1.4 | -6 | -2

# The list continues.
SMILES,Sa ugtP lethal,Mtb hypoxia inh,Mtb hypoxia inh growth,Bead autofluor,RN4220 kill,PrP UTR inh,BJeLR lethal
Cc1ccc(CN2CCc3[nH]c(=O)[nH]c(=O)c3C2)cc1,3,.,.,6451,2.1,-24,6
CCOc1ccc(C(C)NC(=O)c2ccc3c(c2)NC(=O)C(C)S3)cc1OCC (stereo unspecified),15,6,-1,3261,-2.4,-18,.
COC(=O)Nc1ccc2c(c1)OCO2,-6,6,3,3602,-3.3,-11,-14
CCOC(=O)c1[nH]cnc1C(=O)Nc1ccc(Cl)cc1,-9,10,6,3229,3.1,-15,8
COc1cccc(N2CCN(C3CC(=O)N(c4ccc(F)c(Cl)c4)C3=O)CC2)c1 (stereo unspecified),1,.,.,3262,2.2,-19,-3
CCOc1ccc(NC(=O)NNC(=O)c2ccc(CC)s2)cc1,5,18,0,3235,12,-22,2
O=C(Cc1ccc(NC2=NC3CS(=O)(=O)CC3S2)cc1)NCc1ccccc1 (stereo unspecified),5,0,-6,7058,4.0,-26,0
COc1ccccc1NS(=O)(=O)c1cc(NC(=O)c2cc[n+]([O-])cc2)ccc1N1CCCC1,3,-10,-2,3475,4.1,-6,-1
CC(C)Sc1nc(N2CCOCC2)c2c(c1C#N)CC(C)(C)SC2,74,-8,3,4359,-0.9,-16,-2
CCCCC(=O)Nc1ccccc1Oc1ccccc1,.,.,.,3429,.,4,3
Cc1c(N=Cc2c(O)n(CCc3ccccc3)c(=O)[nH]c2=O)c(=O)n(-c2ccccc2)n1C,6,13,8,2905,8.1,-17,-10
COc1ccc(NC(=O)Cn2nc(C)c3ccccc3c2=O)cc1,-1,11,4,4348,3.8,-25,-4
CN(CCO)c1ccc(-c2nn(C)c(=O)c3ccccc23)cc1[N+](=O)[O-],1,14,8,4097,5.1,-8,-1
Cc1cccc(NC(=O)C2CCN(S(=O)(=O)c3ccc4c(c3)C(C)(C)C(=O)N4C)CC2)c1C,-3,-6,1,5801,2.6,-22,10
COc1ccccc1-c1cc2nc(C)cc(C)n2n1,-1,9,2,5410,3.9,-19,6
COC(=O)N=Nc1c(O)n(Cc2ccccc2)c2ccccc12,15,-19,-2,4409,0.5,-4,-2
COc1cc(/C=N/NC(=O)c2cc3ccccc3[nH]2)ccc1O,.,.,.,4116,.,-15,9
CCCCN1CC(O)=C(c2nc(-c3ccc(Br)cc3)cs2)C1=N,4,-20,-3,5138,-3.1,-23,-1
CCc1cc(C(=O)N2CCCC(CCC(=O)NCc3cccc(OC)c3)C2)no1 (stereo unspecified),6,5,-4,4697,1.6,-19,0
COc1ccc2ccccc2c1C=NNC(=O)c1ccccc1F,13,7,-3,.,2.6,.,.
COc1ccccc1N1C(=O)C=C(Sc2nc(C)cc(C)n2)C1=O,1,5,0,.,2.1,.,6
O=C(NC(=S)Nc1nc(-c2ccc(Br)cc2)cs1)c1ccco1,-7,5,7,2703,-2.3,-18,2
O=C(COC(=O)CCOc1ccccc1)NCc1ccco1,-9,1,9,2439,-27,-12,5
O=C(CS(=O)CC(=O)N(CC(=O)NC1CCCC1)C1CCCC1)Nc1ccc(F)cc1 (stereo unspecified),5,3,4,7464,1.9,-8,14
O=C(Cc1csc(Nc2nc(=S)[nH]c3ccccc23)n1)N1CCN(c2cccc(Cl)c2)CC1,8,-6,-4,4333,-7.0,-14,12
Cc1ccc(NC(=O)Nc2ccc3c(c2)CCC3)cc1C,4,8,12,4869,5.7,-18,6
CC1(C)OC2OC(COC(=O)c3ccccc3)C3OC(C)(C)OC3C2O1 (stereo unspecified),8,1,-4,10565,3.4,-32,-3
CCC(Oc1ccc(Cl)cc1)C(=O)N1CC(=O)Nc2ccccc21 (stereo unspecified),-2,1,0,4778,-2.5,-12,-1
Cc1ccc(C)c(OCc2nnc(SCC(=O)NCc3ccc4c(c3)OCO4)o2)c1,-75,9,2,4305,10,-52,1
CC(=O)Nc1cccc(/C(C)=N/NC(=O)c2ccc(NS(=O)(=O)c3cccs3)cc2)c1,.,.,.,4590,.,-15,5
COc1cccc(C=CC(=O)OCC(=O)NCC2CCCO2)c1 (stereo unspecified),0,4,8,.,4.9,.,.
O=C(C=Cc1ccccc1)CC(c1ccccc1)N1CCOCC1 (stereo unspecified),13,11,10,3510,6.4,-8,.
CCSc1nc2c(c(=O)n1CC)SC(C)C2 (stereo unspecified),1,2,8,6105,6.1,0,0
CN(CC(=O)Nc1ccc(F)cc1)C(=O)CN1C(=O)NC2(CCCCC2)C1=O,3,12,7,3833,5.1,-5,.
CC1CN(CCOc2ccccc2C(C)C)CC(C)O1 (stereo unspecified),4,0,14,3184,8.0,-12,2
S=c1[nH]c2ccc(Cl)cc2[nH]1,2,10,14,2609,2.8,-15,-1
CCC(C)NC(=O)c1c(F)c(F)c(F)c(F)c1F (stereo unspecified),-3,.,.,5091,1.0,-11,-3
O=C(Nc1ccc2c(c1)OCO2)C1CCN(S(=O)(=O)c2cccc3cccnc23)CC1,2,.,.,2396,-0.4,-7,12
Cc1c(NC(=O)COC(=O)C2(c3ccccc3F)CCCC2)c(=O)n(-c2ccccc2)n1C,17,-6,5,2604,6.4,12,0
NC(=O)NC(Cc1ccccc1)C(=O)NCC1(N2CCCCC2)CCCCC1 (stereo unspecified),2,2,5,10131,1.5,-2,2
O=C(NCc1ccccc1C(F)(F)F)C12CN(Cc3ccccc3)CC1C(c1ccc([N+](=O)[O-])cc1)=NO2 (stereo unspecified),-1,9,3,3517,1.6,-1,6
Clc1ccc(-n2ncc3c(N4CCCCCC4)ncnc32)cc1,-7,4,-2,5551,-2.8,79*,22
O=C(NCc1cccnc1)c1ccc(NS(=O)(=O)c2cccc([N+](=O)[O-])c2)cc1,-5,9,-1,3713,0.3,-16,.
COc1cccc(C(=O)N2CCCC(c3nc(-c4cccs4)no3)C2)c1 (stereo unspecified),2,4,12,10849,0.5,-3,7
CN1CCN(c2ccc(NC(=O)COc3ccc4ccccc4c3)cc2)CC1,34,5,4,4923,2.6,-18,0
O=C(NCCN1CCOCC1)C(=O)NCc1ccco1,7,5,0,2231,2.9,-17,1
CC(Cn1cnc([N+](=O)[O-])n1)=NNC(=O)c1ccccc1,29,-1,9,.,-2.3,.,.
COc1ccc(C(=O)CSc2nnc(Cn3cnc4ccccc43)o2)cc1,7,14,19,8366,5.8,-19,-1
Cc1ccc(S(=O)(=O)N2CCC(C(=O)N3CCN(c4ccccn4)CC3)CC2)cc1,5,3,1,5116,2.1,-9,2
CCn1c(=S)sc2c(=O)n(-c3ccccc3)c(SC)nc21,11,6,9,9914,3.6,-43,-4
CN(Cc1ccccc1)C1CCCN(C(=O)COc2ccccc2Cl)C1 (stereo unspecified),11,5,6,4889,-0.9,-16,-7
COC(=O)C1=C(c2cc3ccccc3o2)C[C@@H]2CC[C@H]1N2C(=O)NC(C)C,.,.,.,3726,.,-25,9
CCOCCCNC(=O)CN1C(=O)CSc2ccc(S(=O)(=O)N3CCOCC3)cc21,0,-4,9,6053,-1.7,-8,-5
CCc1nnc(N2C(=O)c3ccc(Oc4ccc([N+](=O)[O-])cc4)cc3C2=O)s1,-2,13,1,2156,1.9,-4,2
CCON=C(C)c1c(O)c2ccccc2n(C)c1=O,12,4,3,.,0.8,.,.
CCCNC(=O)c1ccc(N2CCC3(CC2)CC(c2ccccc2)=NO3)c(NC(=O)c2ccco2)c1,.,.,.,3982,.,-13,-9
COc1ccc(CNC(=O)c2cccc(N3CCCC3=O)c2)cc1,-1,.,.,4356,1.4,-7,3
COc1ccc2c(c1OC)C(=O)N(C(C)C(=O)O)C2=O (stereo unspecified),3,10,2,12723,3.3,-28,1
Cc1nc2ccccc2c(=O)n1-c1ccc(NS(=O)(=O)c2ccc(F)cc2F)cc1,0,-10,-8,4976,-1.7,13,1
CCn1ncc(Cl)c1C(=O)Nc1ccncc1,-1,0,3,5123,3.7,-12,-4

# Part of the list above, with two lines to a compound.
# Values run as follows: Sa ugtP lethal	Mtb hypoxia inh	Mtb hypoxia inh growth	Bead autofluor	RN4220 kill	PrP UTR inh	BJeLR lethal
- CCc1nnc(N2C(=O)c3ccc(Oc4ccc([N+](=O)[O-])cc4)cc3C2=O)s1
    -2	13	1	2156	1.9	-4	2
- CCON=C(C)c1c(O)c2ccccc2n(C)c1=O
    12	4	3	.	0.8	.	.
- CCCNC(=O)c1ccc(N2CCC3(CC2)CC(c2ccccc2)=NO3)c(NC(=O)c2ccco2)c1
    .	.	.	3982	.	-13	-9
- COc1ccc(CNC(=O)c2cccc(N3CCCC3=O)c2)cc1
    -1	.	.	4356	1.4	-7	3
- COc1ccc2c(c1OC)C(=O)N(C(C)C(=O)O)C2=O (stereo unspecified)
    3	10	2	12723	3.3	-28	1
- Cc1nc2ccccc2c(=O)n1-c1ccc(NS(=O)(=O)c2ccc(F)cc2F)cc1
    0	-10	-8	4976	-1.7	13	1

# (list continues)
SMILES,Sa ugtP lethal,Mtb hypoxia inh,Mtb hypoxia inh growth,Bead autofluor,RN4220 kill,PrP UTR inh,BJeLR lethal
N#CC1=C2SCCN2C(=O)C(C#N)C12CCCCC2 (stereo unspecified),2,4,3,15730,1.0,-24,0
Cc1cc(NC(=O)CSc2nc(Cc3ccc(O)cc3)c(C)[nH]2)no1,6,7,-9,5742,1.9,-1,11
COc1cc2c(cc1OC)-c1cc(NC3CCCCC3)nc(=O)n1CC2,-14,5,-1,3083,4.1,7,0
O=C(/C=C/c1ccccc1)NCCC1=CCCCC1,-3,8,13,2556,-0.2,-79,-1
COc1ccc(Nc2cc(Nc3ccccc3)ncn2)cc1,5,2,-1,3578,-0.3,-51,9
c1ccc(-c2ccncc2)nc1,-2,9,1,4207,-17,-4,.
CCOC(=O)C1CCN(/C=C2/C(=O)NC(=O)N(Cc3ccco3)C2=O)CC1,.,.,.,2853,.,-15,6
CC1C(C)N1CC(O)Cn1ccnc1[N+](=O)[O-] (stereo unspecified),6,4,-7,3868,2.0,-32,-1
COc1ccc(NS(=O)(=O)c2cccc(NC(=NS(=O)(=O)c3ccccc3)c3ccc(F)cc3)c2)cc1,-2,8,1,.,16,.,.
COc1ccc(CN(C(=O)c2cc3ccccc3oc2=O)C2CCCC2)cc1,1,.,.,4575,1.6,6,13
COc1ccc2c(=O)c3c(=O)n(-c4ccccc4)c(-c4ccco4)nc3oc2c1,7,-1,-19,2696,4.5,-32,-1
